# KCNQ2 enhance: enhances the rat KCNQ2 potassium channel; O88943; CHO-K1 KCNQ2, FluxOR thallium flux fluorescence; hits give high values; B-score at 10 µM; hit rate 0.54% among 310,000; AID 2239;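 active means fluorescence ratio B-score at least 3 SD of library B-scores, with initial fluorescence B-score within 3 SD, cut at about 5.3 in these data; same plate scores as AID 2156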;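 further: B-score of peak minus minimum over baseline fluorescence ratio after K+ and Tl+ stimulus; positive B-score means potentiation of KCNQ2 with more thallium influx and brighter signal; only the inactives scoring about 0 or higher are listed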
# Target sequence (O88943 whole entry, looked up): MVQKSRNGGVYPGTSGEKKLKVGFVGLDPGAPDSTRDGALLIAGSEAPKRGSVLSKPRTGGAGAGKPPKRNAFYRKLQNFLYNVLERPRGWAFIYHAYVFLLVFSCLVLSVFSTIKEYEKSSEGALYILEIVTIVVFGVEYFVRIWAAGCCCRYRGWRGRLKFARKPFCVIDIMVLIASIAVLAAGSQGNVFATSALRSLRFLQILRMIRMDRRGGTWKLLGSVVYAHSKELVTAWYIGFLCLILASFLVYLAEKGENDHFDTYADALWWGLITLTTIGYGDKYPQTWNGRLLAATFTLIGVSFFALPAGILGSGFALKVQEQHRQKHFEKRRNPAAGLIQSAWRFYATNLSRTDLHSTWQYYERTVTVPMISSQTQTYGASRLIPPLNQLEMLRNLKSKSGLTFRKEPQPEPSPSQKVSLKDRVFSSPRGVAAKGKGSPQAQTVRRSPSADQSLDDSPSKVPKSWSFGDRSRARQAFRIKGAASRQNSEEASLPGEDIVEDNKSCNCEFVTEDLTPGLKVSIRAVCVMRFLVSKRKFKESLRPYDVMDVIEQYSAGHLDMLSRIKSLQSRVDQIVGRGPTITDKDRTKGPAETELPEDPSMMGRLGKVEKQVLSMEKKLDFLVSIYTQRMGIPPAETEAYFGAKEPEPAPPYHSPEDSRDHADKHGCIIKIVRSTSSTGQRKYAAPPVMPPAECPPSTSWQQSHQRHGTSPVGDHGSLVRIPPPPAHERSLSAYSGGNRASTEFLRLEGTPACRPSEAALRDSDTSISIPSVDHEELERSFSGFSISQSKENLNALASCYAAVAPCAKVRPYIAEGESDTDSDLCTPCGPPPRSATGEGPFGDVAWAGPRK
# KCNQ2 enhance baseline: second read-out of KCNQ2 enhance, no call of its own (marks repeat the call); B-score; compound at 10 µM; measured here: initial fluorescence intensity artifact check;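 brightness before thallium and not channel activity; 0 = typical well and far values either way flag optical interference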
# Active calls of the source: *. Some of the compounds tested; rates above refer to the full screens.
SMILES,KCNQ2 enhance,KCNQ2 enhance baseline
O=C(NC(=O)N1CCN(c2cccc(Cl)c2)CC1)c1ccccc1,1.7,-1.9
CCN(C(=O)CN1c2ccccc2CC1C)c1c(N)n(Cc2ccccc2)c(=O)[nH]c1=O (configuration not stated),0.77,-0.36
COc1ccc(S(=O)(=O)NNC(=O)C2CC(c3cccnc3)=NO2)cc1 (configuration not stated),1.4,-1.4
N#C/C(=C(/O)CO/N=C/c1ccccc1Cl)c1nc2ccccc2[nH]1,0.1,-0.85
COC(=O)CN(c1ccc(C)cc1)S(=O)(=O)c1ccc2c(c1)n(C)c(=O)c(=O)n2C,0.05,2.2
O=C(Cc1ccc(Cl)cc1Cl)NC1CCCCCC1,3,-0.17
O=C1N=C(N2CCCC2)S/C1=C\c1ccccc1,4.2,0.16
OCC1(Cc2ccc(Cl)cc2)CCN(Cc2ccc(Oc3ncccn3)cc2)CC1,0.36,-1
Cc1ccc(C(=O)NCCC(=O)NCc2cc(=O)n(C)c(=O)n2C)cc1,1,1.4
CCCOc1cc(C)c(S(=O)(=O)NC2CC(C)(C)NC(C)(C)C2)cc1C,1.9,0.44
CCOC(=O)Cn1c(=NC(=O)CC)sc2c(C)cc(C)cc21,1.2,-0.02
CCOc1ccc(S(=O)(=O)N2CCC(C(=O)N3CCN(c4ccccc4F)CC3)CC2)cc1C,0.95,-0.79
CCOC(=O)C1(CCOC)CCN(CC(C)Cc2ccc3c(c2)OCO3)CC1 (configuration not stated),1.9,0.1
O=C(NCCc1ccc(Cl)cc1)C(=O)c1c[nH]c2ccccc12,2.9,0.42
N#C/C(=C\c1ccc(Cl)cc1Cl)c1n[nH]c(Cn2cncn2)n1,1.5,-0.01
COCCn1c(=S)[nH]c2cc(C(=O)N3CC(C)CC(C)C3)ccc2c1=O (configuration not stated),0.31,-1.2
Cn1ncc(Br)c1C(=O)NC1CCCCCC1,0.29,0
CC1=C(C#N)C(NC(=O)C2CC2)(C(F)(F)F)C(=O)N1 (configuration not stated),0.39,-0.09
O=C1Nc2ccccc2C(O)(C(=O)NCc2ccco2)N1c1ccc(Cl)cc1 (configuration not stated),0.97,0.73
CC(C)c1[nH]nc2c1C(Cc1ccccc1)C(C#N)=C(N)O2 (configuration not stated),0.33,0
CC(C)(C)S(=O)(=O)c1c(C(=O)O)cccc1C(=O)O,1.9,-0.28
CCOC(=O)NNS(=O)(=O)c1cc(Br)ccc1Br,0.87,-1.1
COc1ccc(CNC(=O)[C@H](NC(=O)C2CCN(C(=O)[C@@H](N)CCSC)CC2)C(C)C)cc1,0.74,0.72
CN1CCN(c2oc(-c3ccccc3F)nc2S(=O)(=O)c2ccc(Cl)cc2)CC1,0.82,-0.08
Fc1ccc(/C=N/Nc2nccnc2Cl)cc1,0.26,2
CCCCS(=O)CC(O)COCC (configuration not stated),1.1,0.23
COc1cc2c(cc1OC)C1=C(C#N)COCN1CC2,0.7,0.3
CC(C)(C)c1ccc(S(=O)(=O)NCc2ccc(C(=O)NCc3ccccn3)cc2)cc1,0.37,0.02
CC(C)CCNC(=O)c1c(CSc2ccccc2)noc1C(=O)NCc1ccccc1,0.91,1.9
Cc1ccc(NC(=O)COc2ccc(/C=N\NC(=O)c3cccnc3)cc2)cc1C,1.6,1.4
CC1CCCCN1CC(O)COc1ccc(OCC(O)CN2CCCCC2C)cc1 (configuration not stated),1.8,-1.3
Cc1cc(C)cc(OCC(=O)O/N=C(\N)c2ccccn2)c1,0.07,1.3
CN(c1cccc(NC(=O)c2ccccc2N(Cc2ccccc2)S(C)(=O)=O)c1)S(C)(=O)=O,2.7,-1.6
Cc1cc2cc(C)c3nnc(SCC(=O)Nc4ccc(S(=O)(=O)N5CCCCC5)cc4)n3c2cc1C,0.67,-1.7
Cc1cc(C)n2nc(SCc3ccc(F)cc3Cl)nc2n1,0.35,-0.04
O=C(NCCCN1CCCCC1)C1CCN(S(=O)(=O)N2CCC3(CC2)OCCO3)CC1,0.24,-1.8
CCn1c(SCC(=O)N(Cc2ccccc2)C2CCS(=O)(=O)C2)nc2ccccc2c1=O (configuration not stated),0.61,-0.64
COc1ccc(N(CC(O)Cn2c3ccccc3c3ccccc32)S(=O)(=O)c2ccccc2)cc1 (configuration not stated),1.6,0.06
COc1ccc(-c2csc(NC(=O)CN3C(=O)CCC3=O)n2)c(OC)c1,0.67,0.81
CC(=O)c1c(C)nc2cc(Cl)ccc2c1N,0.7,1.9
Cc1onc(-c2ccccc2)c1C(=O)Nc1ccc(C(=O)N2CCCCC2)cc1,0.85,-1.3
C=CCN1C(=O)c2ccc(C(=O)NCCc3ccc(F)cc3)cc2C1=O,0.42,1.3
Cc1ccc(-n2nnnc2SCc2ccc(C(=O)O)cc2)cc1C,1,0.39
COc1cccc(OCCCN2CCCCC2)c1,0.12,0.61
COc1ccc(C(CNC(=O)C(=O)Nc2ccc3c(c2)OCCO3)N2CCN(C)CC2)cc1 (configuration not stated),0.8,0.66
CCn1c(SCC(=O)NNC(=O)Cc2ccccc2)nnc1-c1ccccc1,0.06,-3.4
CCNc1nc(NCC)n2c(SCC(=O)c3ccccc3F)nnc2n1,1.8,-0.22
CNC(=O)c1c(NC(=O)c2ccc(N3C(=O)CCC3=O)cc2)sc2c1CCCC2,2.1,-1.5
COc1cccc(CNC(=S)NC2CCCC2)c1,0.98,0
CS(=O)(=O)N(CC(=O)N/N=C/c1ccccn1)c1ccc(Oc2ccccc2)cc1,0.56,-0.29
O=S(=O)(NN=C1CCCCCCC1)c1ccc(Br)cc1,1.3,4.2
CCc1nc(SCC(=O)NCC2CCCO2)c2oc3ccccc3c2n1 (configuration not stated),0.21,0.01
C=C1CCN([C@H](C(=O)Nc2ccc(OC)cc2)C(C)C)S(=O)(=O)c2ccccc21,0.7,0.75
CCOC(=O)c1c(C)[nH]c(C(=O)C(C)OC(=O)c2cccc(OCc3c(C)noc3C)c2)c1C (configuration not stated),0.04,0.85
O=c1c2ccccc2c(C=NC2CCS(=O)(=O)C2)c(O)n1-c1ccccc1 (configuration not stated),0.49,0.42
COC(=O)c1ccc(NC(=O)C2CC3CCC2C3)cc1 (configuration not stated),1.2,1.6

# The list goes on.
SMILES,KCNQ2 enhance,KCNQ2 enhance baseline
COC(=O)/C(C#N)=C/c1c(N2CCN(c3ccccc3)CC2)nc2ccccn2c1=O,0.66,-0.14
Clc1ccc(-c2nc3ccncc3[nH]2)cc1,2.6,-0.39
CCCCCCCCN1[C@@H](CC(=O)O)c2cc(F)ccc2S1(=O)=O,1.3,0.41
CC(=O)Oc1ccc2c(c1)C(=O)c1ccccc1CO2,0.84,-0.04
COC(=O)C1=CO[C@@H](O[C@@H]2OC(CO)[C@@H](O)[C@@H](O)[C@@H]2O)C2C1CC[C@]2(C)O (some centres not stated),1.4,-0.21
CCSc1nnc(NC(=O)c2cccc(S(=O)(=O)N(C)c3ccc(C)cc3)c2)s1,0.01,2.7
CSc1nnc(Cc2ccc3c(c2)OCO3)o1,0.5,3
CCN(CC)c1ccc(NC(=O)c2ccccc2F)cc1,1.5,-0.58

# Five consecutive compounds from above, for reference:
SMILES,KCNQ2 enhance,KCNQ2 enhance baseline
CC(=O)Oc1ccc2c(c1)C(=O)c1ccccc1CO2,0.84,-0.04
COC(=O)C1=CO[C@@H](O[C@@H]2OC(CO)[C@@H](O)[C@@H](O)[C@@H]2O)C2C1CC[C@]2(C)O (some centres not stated),1.4,-0.21
CCSc1nnc(NC(=O)c2cccc(S(=O)(=O)N(C)c3ccc(C)cc3)c2)s1,0.01,2.7
CSc1nnc(Cc2ccc3c(c2)OCO3)o1,0.5,3
CCN(CC)c1ccc(NC(=O)c2ccccc2F)cc1,1.5,-0.58

# Remaining list, next part:
SMILES,KCNQ2 enhance,KCNQ2 enhance baseline
O=C(CCc1nc2ccccc2c(=O)[nH]1)NCCN1C(=O)S/C(=C\c2ccccc2Cl)C1=O,1.3,1.6
CC(=O)Nc1ccc(S(=O)(=O)Nc2ccc(=O)n(Cc3ccc(Cl)c(Cl)c3)c2)cc1,0.19,0.75
CCCCC(=O)N(c1ccc(OCC)cc1)C1C=CS(=O)(=O)C1 (configuration not stated),0.37,0.86
C=CCN1c2ccccc2[C@]23C[C@@H](C(=O)OC)N(C(=O)c4cccs4)C2=NC(C(=O)OC)=C(C(=O)OC)[C@H]13,0.67,-0.46
O=C(NC(=S)Nc1cccc(C(F)(F)F)c1)c1csnn1,18*,0.2*
OC(COc1ccc(F)cc1)CN1CCN(CC(O)COc2ccc(F)cc2)CC1 (configuration not stated),0.21,-0.02
Cc1cc(C(=O)OCC(N)=O)c(C)n1-c1ccccc1,2.1,1.5
COc1cc(/C=N/OCC(=O)NC2CCCCC2)ccc1OCc1ccccc1,0.34,-0.96
Cc1c(C(=O)N2CCN(C(=O)c3ccco3)CC2)sc2nc(-c3ccc(F)cc3)cn12,0.19,-0.17
CC1=C(C(=O)OCc2ccccc2)C(c2cccs2)N2C(=O)CCSC2=N1 (configuration not stated),0.37,-0.61
COC(=O)c1ccc(Nc2nc(N3CCOCC3)nc(N3CCOCC3)n2)cc1,0.59,0.65
COC(=O)c1ccc(N2NC(=O)/C(=C/c3cc(OC)c(O)c(OC)c3)C2=O)cc1,0.91,2
CCOC(=O)c1ccc(NC(=S)NNC(=O)C2(C)CC2(Cl)Cl)cc1 (configuration not stated),1.7,-0.03
O=C1NC(=S)S/C1=C\c1cc2ccccc2nc1N1CCCCC1,5.5*,0.03*
Cc1cc(C(=O)N/N=C/c2c(C)nn(-c3ccccc3)c2C)c(C)o1,0.09,-2
Cc1ccc(OCCn2cc(/C(N)=N/O)c3ccccc32)cc1C,0.07,-2.4
CSc1ccc(CCNC(=O)CCc2nnc3ccc(N4CCCCC4)nn23)cc1,2.3,1.2
COc1cc([N+](=O)[O-])c2ncsc2c1,0.05,0.19
COC(=O)c1sccc1NC(=S)N1CCC(C)CC1,0.62,0.1
Cc1cc(C)n2nc(-c3ccc(Br)cc3)cc2n1,0.03,0.2
COc1cc(C=O)ccc1OCCOCCOc1ccccc1Cl,0.17,0.39
Cc1ccc(C)c(Nc2ncnc3nc[nH]c23)c1,0.34,0.45
COC(=O)c1c(NC(=O)C(=O)N2CCOCC2)sc2c1CCC2,1.3,0.28
O=C(OCC(=O)N(C1CCCCC1)C1CCCCC1)c1ccc(O)cc1,0.71,1
COc1ccc(CN(C)C2CCN(C)CC2)cc1OC,1.3,-0.22
CCCCCCC(=O)N1CCC(c2nc3c(nnn3Cc3ccccc3Cl)c(=O)[nH]2)CC1,0.58,-0.27
Cc1ccc(/C=C2\SC(=S)N(CCC(=O)NNC(=O)c3cccc(O)c3)C2=O)cc1,1.1,0.58
Cc1c(Cl)c([N+](=O)[O-])nn1CC(=O)N1CCc2ccccc2C1,0.35,-2.7
COc1ccc(Cl)cc1N1C(=O)c2cccnc2C1=O,0.88,2.8
CC(=O)c1cccc(NC(=O)c2cc3nc(C)cc(C)n3n2)c1,2.4,1.2
COc1cc(/C=N/NC(=O)C2(O)c3ccccc3-c3ccccc32)ccc1O,1.3,0.17
Cc1ccc(Cl)cc1NC(=O)CCC(=O)NCc1ccco1,0.26,0.52
Cc1ccccc1Nc1nc(N)nc(CSc2nc3ccccc3c(=O)n2CCCO)n1,1.1,-2.4
CNC(=O)c1[nH]nc2c1CCc1cc(OC)ccc1-2,1.1,0.89
c1csc(Cc2nn3c(-c4n[nH]c5c4CCC5)nnc3s2)c1,1.2,0.34
N#CCSc1nc2cc(C(=O)N3CCCC3)ccc2c(=O)n1Cc1ccccc1,0.14,2.5
O=C(Nc1cccc(-c2cscn2)c1)C1CCN(Cc2ccc(CO)o2)CC1,0.02,-0.94
CCOC(=O)C1CCCN(C(=O)CCCn2c(=O)c3cccn3c3cccnc32)C1 (configuration not stated),0.66,1.8
Cc1cc(=O)oc(C)c1C(=O)NCCC1=CCCCC1,1.1,-3.8
CC(C)(C)OC(=O)c1c(N)n(CCCN2CCCC2=O)c2nc3ccccc3nc12,0.48,-0.25
O=S(=O)(/N=C(\Nc1ccc(F)cc1)C(F)(F)F)c1ccccc1,0.75,0.72
CCCC(=O)NC(NC1CCS(=O)(=O)C1)C(Cl)(Cl)Cl (configuration not stated),1.6,-2.6
C=CCn1c(COc2ccc(F)cc2)nnc1SCC(=O)c1c[nH]c2c(CC)cccc12,0.39,0.09
COc1cc2nc(Cl)nc(N3CCN(C)CC3)c2cc1OC,1.1,-0.49
COC(=O)[C@H]1C[C@@H]1[C@H](NC(=O)c1cnccn1)c1ccccc1,0.62,0.07
CCN(CC)C(=O)/C(=C/c1cn(S(=O)(=O)N(C)C)c2ccccc12)NC(=O)c1ccc(OC)cc1,1.2,-0.68
CC(OC(=O)CCc1nc2ccccc2c(=O)[nH]1)C(=O)Nc1ccc2c(c1)OCO2 (configuration not stated),1.2,-1.6
O=C(Nc1nnc(SCC(=O)N2CCCc3ccccc32)s1)c1ccccc1,0.03,0.27
c1ccc(-n2nnnc2Oc2ccc(-c3nnco3)cc2)cc1,0.98,0.54
Cc1ccc(NC(=O)C2CC(=O)N/C(=N/N=C/c3ccco3)S2)cc1C (configuration not stated),0.11,0.03
O=C1N(CC(=O)N2CCc3ccccc32)CCN1Cc1ccccc1Cl,0.42,-1.6
Cc1ccc(NC(=O)CN2CCN(S(=O)(=O)c3cccs3)CC2)cc1S(=O)(=O)N(C)C,0.2,-1.3
Cc1csc(OCC(=O)Nc2ccc(C)c(C)c2)n1,1.5,0.03

# Screens as filed in PubChem.
